VDR inhibitor = Inhibitors of the vitamin D receptor (VDR): qHTS; VDR-SRC2-3 peptide fluorescence polarization, 2 h; Potency, µM, for the others: max response, negative = inhibition, hits mostly inhibitors; hit rate 0.93% among 400,000; active = well fitted inhibition curve with a large enough effect; inconclusive = small, poorly fitted or top-dose-only effect, or another doubt; inactive = no such curve, though single readings can be large or run the other way; also: series mostly up to about 120 µM
Target sequence (P11473 whole entry, looked up): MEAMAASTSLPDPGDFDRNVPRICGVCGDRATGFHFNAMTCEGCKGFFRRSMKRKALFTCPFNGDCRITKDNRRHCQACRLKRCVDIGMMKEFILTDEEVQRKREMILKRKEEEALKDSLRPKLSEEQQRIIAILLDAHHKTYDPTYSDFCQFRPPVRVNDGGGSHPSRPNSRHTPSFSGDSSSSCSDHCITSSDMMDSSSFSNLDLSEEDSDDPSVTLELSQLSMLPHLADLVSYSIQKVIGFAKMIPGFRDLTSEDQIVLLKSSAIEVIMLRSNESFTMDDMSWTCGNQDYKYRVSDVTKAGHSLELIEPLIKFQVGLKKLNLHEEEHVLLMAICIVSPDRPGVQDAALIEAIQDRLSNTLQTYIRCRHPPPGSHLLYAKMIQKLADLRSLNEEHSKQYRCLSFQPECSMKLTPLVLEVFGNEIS
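Compounds are added to VDR with labelled SRC2-3 coactivator peptide and held 2 h at room temperature. Inhibition of the VDR–peptide interaction is then read as a change in fluorescence polarization.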
Numbers without * were called inactive; [ ] = another dose, or the depositor's remark. % is scaled to controls: 0 for no effect and ±100 for the full control effect; potency is read from the fitted curve at half-maximal effect. A portion of the library; rates above refer to the full screens.

Start of the listing, in advance:
`CCCNC(=O)NC(=O)CSc1nnc(-c2ccncc2)n1CC` gave VDR inhibitor -8.9%.
Cc1cc(N)ccc1N1CCCC1 was read as VDR inhibitor 70.8µM*.

The listing, previewed entries included:
`CCCNC(=O)NC(=O)CSc1nnc(-c2ccncc2)n1CC` gave VDR inhibitor -8.9%.
Cc1cc(N)ccc1N1CCCC1 was read as VDR inhibitor 70.8µM*.
`CN(C)S(=O)(=O)c1cccc(C(=O)NCC(=O)NC2CCN(Cc3ccccc3)CC2)c1` gave VDR inhibitor 2.3%.
Cc1cc2[nH]ncc2cc1NC(N)=S was read as VDR inhibitor 11.3%.
Cc1cc(NC(=O)CSc2nnc(-c3ccncc3)n2C)n(-c2ccccc2)n1 was read as VDR inhibitor -11.0%.
COc1ccc(NC(=O)c2cc(-c3ccc(C)o3)nc3ccccc23)cc1OC was read as VDR inhibitor -25.2%.
COC(=O)C(NC(=O)c1ccccc1C(=O)O)c1ccc2ccccc2c1 (stereo not given) was read as VDR inhibitor -11.7%.
Screening O=C(NCc1ccccn1)C(=O)N/N=C/c1ccc2c(c1)OCO2 returned VDR inhibitor 0.7%.
COc1ccc2[nH]c(C(=O)O)c(NS(=O)(=O)c3ccc(F)cc3)c2c1 was read as VDR inhibitor -26.1%.
`CCc1ccccc1NC(=S)N1CCNC(=O)C1CC(=O)OC` (stereo not given) gave VDR inhibitor -18.5%.
O=C(NCCSc1ccccc1)c1ccc(Br)cc1 was read as VDR inhibitor -9.4%.
For COc1cccc(NCc2cc(=O)oc3cc(-c4ccccc4)c(O)cc23)c1 the results were VDR inhibitor -3.5%.
`O=C(C(=O)N1CCCC1)c1c[nH]c2ccccc12` gave VDR inhibitor 6.5%.
`CCOc1ccc(CN(C)C(C)C(=O)NCc2ccccc2)cc1` (stereo not given) gave VDR inhibitor 21.8%.
Screening O=C(CCc1ccccc1)Nc1nn[nH]n1 returned VDR inhibitor -16.2%.
`Cc1[nH]c2ccccc2c1C(=O)C(=O)NCCc1c[nH]c2ccccc12` gave VDR inhibitor -12.6%.
O=C(C/C=N\OCc1ccc([N+](=O)[O-])cc1)Nc1ccc(F)cc1F was read as VDR inhibitor -15.6%.
For COC(=O)c1[nH]c2cccc(OC)c2c1NC(=O)CCN1CCSCC1 the results were VDR inhibitor 4.3%.
Screening COCCn1c(C)cc(O)c(C(c2ccccc2F)N2CCN(c3ccccc3)CC2)c1=O (stereo not given) returned VDR inhibitor -10.2%.
For COCCNC(=O)c1cc2cc(Br)cc(Br)c2oc1=O the results were VDR inhibitor -4.4%.
`O=S(=O)(c1ccc2oc3ccccc3c2c1)N1CCOCC1` gave VDR inhibitor -10.7%.
`Cc1ccc(S(=O)(=O)N2[C@@H](c3ccc(Cl)cc3)C(C(=O)O)=C[C@H]2CC2CCCC2)cc1` gave VDR inhibitor -23.6%.
For COc1cc(CC(=O)N2CCC(n3nccc3NC(=O)C3CC3)CC2)cc(OC)c1OC the results were VDR inhibitor -13.0%.
`COc1cc(OC)nc(Oc2cc(/C=N/O)ccc2OC)n1` gave VDR inhibitor 12.7%.
Screening Fc1ccc(Nc2ncncc2-c2ccccc2C(F)(F)F)cc1 returned VDR inhibitor inconclusive.
O=C1CC(c2ccccc2)CC(=O)C1CS(=O)(=O)c1ccccc1 (stereo not given) was read as VDR inhibitor 31.6µM*.
`COc1ccc(Nc2ncnc3nc[nH]c23)cc1OC` gave VDR inhibitor 2.4%.
Screening N#Cc1nc(-c2ccc(COc3ccccc3)o2)oc1N1CCN(c2ccccc2)CC1 returned VDR inhibitor 8.4%.
Screening O=C(NCCc1ccccc1)c1nccc2ccccc12 returned VDR inhibitor 1.5%.
Screening CCOC(=O)Cc1csc(SCC(=O)Nc2oc(C)c3c(C)n[nH]c(=O)c23)n1 returned VDR inhibitor -6.5%.

Reprinted at random: 4 records from the list, in no set order.
`Cc1[nH]c2ccccc2c1C(=O)C(=O)NCCc1c[nH]c2ccccc12` gave VDR inhibitor -12.6%.
O=C1CC(c2ccccc2)CC(=O)C1CS(=O)(=O)c1ccccc1 (stereo not given) was read as VDR inhibitor 31.6µM*.
`COc1cc(OC)nc(Oc2cc(/C=N/O)ccc2OC)n1` gave VDR inhibitor 12.7%.
For COc1cc(CC(=O)N2CCC(n3nccc3NC(=O)C3CC3)CC2)cc(OC)c1OC the results were VDR inhibitor -13.0%.

Additional results:
For COc1ccccc1Nc1nc(NCCCN(C)C)nc(N)c1[N+](=O)[O-] the results were VDR inhibitor -6.9%.
For Nc1ccc2c(C(F)(F)F)cc(C(F)(F)F)nc2n1 the results were VDR inhibitor 2.1%.
Screening CC1CCN(c2ccc(C=O)o2)CC1 returned VDR inhibitor -10.8%.
Screening COc1ccc(C2NCCc3c2[nH]c2ccccc32)cc1CN1CCc2cc(OC)c(OC)cc2C1C (stereo not given) returned VDR inhibitor -12.4%.
For O=C(NCc1ccccc1)c1ccc(CNc2c(N3CCCC3)c(=O)c2=O)cc1 the results were VDR inhibitor 0.5%.
O=C(c1ccccc1)c1ccc(N2CCOCC2)c(NC(=O)c2ccco2)c1 was read as VDR inhibitor -0.3%.
For COc1cccc(CNc2ccc(S(N)(=O)=O)cc2)c1OC the results were VDR inhibitor 6.6%.
Screening CCNc1nc(SC(C)C(=O)Nc2ccccc2)nc(N2CCOCC2)n1 (stereo not given) returned VDR inhibitor -7.2%.
For Cc1ccc(/C=N/NC(=O)COc2ccccc2-c2ccccc2)cc1 the results were VDR inhibitor 0.1%.
For CCOC(=O)C1(Cc2ccccc2)CCN(Cc2cnn(C(C)C)c2)CC1 the results were VDR inhibitor -2.0%.
O=C1OC(CN2CCOCC2)CN1N=Cc1ccc([N+](=O)[O-])o1 (stereo not given) was read as VDR inhibitor 9.8%.
For COc1ccc(C(=O)C2CCCN(C(=O)C3=CCCC3)C2)c(C)c1 (stereo not given) the results were VDR inhibitor -5.9%.
For O=C(NC1CCCCC1)c1ccc(CS(=O)Cc2ccccc2Cl)o1 (stereo not given) the results were VDR inhibitor 8.6%.
For Cc1cc(C)n2ncc(C(=O)NCc3cccnc3)c2n1 the results were VDR inhibitor -3.5%.
Nc1ccccc1S(=O)(=O)C(F)F was read as VDR inhibitor 1.0%.
Cc1ccc(NC(=O)CSc2nnnn2-c2cccnc2)c(C)c1 was read as VDR inhibitor -20.9%.
Screening COc1cc(C(=O)Nc2ccc3c(c2)C(=O)N(CCC(=O)O)C3=O)cc(OC)c1OC returned VDR inhibitor 3.0%.
`O=C(O)CC(CC(=O)O)c1ccsc1` gave VDR inhibitor -8.8%.
Screening Cc1ccccc1C(=O)c1c[nH]c(C(=O)NCCc2ccccn2)c1 returned VDR inhibitor -24.8%.
Cc1nn(C)cc1/C=N/NC(=O)c1ccco1 was read as VDR inhibitor 5.3%.
Screening Cc1nc(-n2nc(C)c(Cc3ccccc3Cl)c2C)sc1C(=O)N1CCC(C)CC1 returned VDR inhibitor 10.4%.
COc1ccc(S(=O)(=O)Nc2cc3c(cc2NCc2ccccc2)n(C)c(=O)n3C)cc1OC was read as VDR inhibitor 16.0%.
COc1cccc(NC(=O)CN(C)C(=O)c2ccc(NC(=O)CC3SC(N4CCCC4)=NC3=O)cc2)c1 (stereo not given) was read as VDR inhibitor 5.0%.
`O=C(O)c1cc(NCc2ccccc2)ccc1N1CCOCC1` gave VDR inhibitor -2.3%.
For Cc1cccc(N(C)C(=O)CN(C)S(=O)(=O)c2ccc3[nH]c4c(c3c2)CCCC4)c1 the results were VDR inhibitor 3.3%.
For CN(C1CCS(=O)(=O)C1)S(=O)(=O)c1ccccc1 (stereo not given) the results were VDR inhibitor 6.6%.
COc1c(C)cc(S(=O)(=O)NCCN2CCOCC2)c(C)c1C was read as VDR inhibitor 2.6%.
`O=C(N/N=C\c1c(F)c(F)c(F)c(F)c1F)c1ccc(-c2ccccc2)cc1` gave VDR inhibitor -18.8%.
CN(C)c1ccc(O)c2c1C[C@@H]1C[C@H]3C(N(C)C)C(=O)C(C(N)=O)=C(O)[C@@]3(O)C(=O)C1=C2O (stereo not given in full) was read as VDR inhibitor inconclusive.
For O=C(Nc1ccccc1O)c1ccc2c(c1)C(=O)N(Cc1ccco1)C2=O the results were VDR inhibitor 6.7%.
Cc1ccc(CNCC(=O)Nc2ccc(C)cc2Br)cc1 was read as VDR inhibitor -2.5%.
For Cc1ccc(/C=N/NC(=O)c2c[nH]c3ccccc23)s1 the results were VDR inhibitor 8.4%.
For Cc1ccccc1NC(=O)Cn1cccc1 the results were VDR inhibitor 14.5%.
`COC(=O)c1ccc(N2C(=O)CC(N3CCOCC3)C2=O)cc1` (stereo not given) gave VDR inhibitor -8.8%.
Screening CC(=O)c1ccc(NC(=S)N(C)C2CCN(C)CC2)cc1 returned VDR inhibitor inconclusive.
Screening COc1cccc(-n2c(=O)c3c(C)c(C(=O)N(C)C)sc3n(CC(=O)NCC3CCCO3)c2=O)c1 (stereo not given) returned VDR inhibitor 12.2%.
Screening O=C(N/N=C/c1ccc(F)cc1)c1cc(-c2ccc3c(c2)OCO3)n[nH]1 returned VDR inhibitor 25.9%.
`O=c1cc(N=Nc2ccc(Cl)cc2)[nH]c(=O)[nH]1` gave VDR inhibitor inconclusive.
O=C(CN(Cc1ccccc1)S(=O)(=O)c1ccc(F)cc1)NCCC1=CCCCC1 was read as VDR inhibitor -2.0%.
Screening Cc1ccc(S(=O)(=O)N2CCC(C(=O)N/N=C/c3cccnc3)CC2)cc1 returned VDR inhibitor 5.4%.
Screening C/C(=N/NC(=O)CNC(=O)Cc1ccccc1)c1ccc(Cl)cc1 returned VDR inhibitor -0.8%.
`COC(=O)C1=C(N)Oc2c(oc(CO)cc2=O)C1c1c(F)cccc1Cl` (stereo not given) gave VDR inhibitor -9.9%.
CN(Cc1ccccc1)C(=O)COc1cc(=O)n(C)c2ccccc12 was read as VDR inhibitor -0.9%.
`COc1cc(C(=O)NCCN2CCCC2)cc(OC)c1OC` gave VDR inhibitor -1.5%.
`CC1(CC(=O)N/N=C/c2cc3c(cc2Br)OCO3)OCCO1` gave VDR inhibitor -6.7%.
For CC(C)CCNC(=O)CCCCn1c(=O)[nH]c2ccsc2c1=O the results were VDR inhibitor 3.1%.
For O=C(O)CN1C(=O)/C(=C\c2ccccc2OCc2ccc(F)cc2)SC1=S the results were VDR inhibitor inconclusive.
`COc1ccccc1NC(=S)NNC(=O)c1ccccc1` gave VDR inhibitor 4.9%.
Cc1ccc(-c2cc(C(=O)N3CC4(C)CC3CC(C)(C)C4)no2)cc1 (stereo not given) was read as VDR inhibitor 7.4%.
Screening Cc1ccc(NC(=O)CSCC(=O)Nc2cccc(S(=O)(=O)N3CCCCCC3)c2)cc1 returned VDR inhibitor -22.1%.
Screening Cc1ccc(C(CNS(=O)(=O)c2ccc(F)cc2C)N2CCN(C)CC2)cc1 (stereo not given) returned VDR inhibitor 16.2%.
`O=C1CC(Sc2ncccn2)C(=O)N1c1ccccc1` (stereo not given) gave VDR inhibitor 14.2%.
`CCC(C)(C)NC(=O)C(C(C)C)N(CC1CCCO1)C(=O)CNS(=O)(=O)c1ccccc1` (stereo not given) gave VDR inhibitor -13.8%.
`O=C(NC(NCCCN1CCOCC1)(C(F)(F)F)C(F)(F)F)C1CCCCC1` gave VDR inhibitor 21.7%.
`CCCCOC(=O)C1[C@H]2C(=O)N(c3ccccc3CC)C[C@]23C=C[C@H]1O3` (stereo not given in full) gave VDR inhibitor 2.9%.
Screening CCCCCCn1cnc2c(oc3nc4c(cc32)CCCC4)c1=O returned VDR inhibitor 38.8%[activator].
`COc1ccc(COc2ccccc2C(=O)Nc2ccccn2)cc1[N+](=O)[O-]` gave VDR inhibitor -7.7%.
For Cc1ccc(-c2nnc(SCC(=O)N3CCc4ccccc43)o2)cc1 the results were VDR inhibitor -6.6%.
For C[C@@H]1C(=O)O[C@H](C)[C@H]1C[C@@H](O)[C@](C)(O)C1CC[C@@]2(O)C3=CC(=O)[C@@H]4C[C@@H](O)[C@@H](O)C[C@]4(C)C3CC[C@]12C (stereo not given in full) the results were VDR inhibitor -11.7%.
`CCn1c(=O)cc(C(=O)OC)sc1=Nc1ccc(F)c(F)c1` gave VDR inhibitor inconclusive.
For Cn1c(C(=O)NCCN2CCc3ccccc3C2)cc2c(=O)[nH]c3ccccc3c21 the results were VDR inhibitor 1.6%.
Screening CCC1=C(c2ccc(C)cc2)S(=O)(=O)N=C1N1CCC(C(=O)NCCCN2CCCCC2)CC1 returned VDR inhibitor 7.6%.
Screening COc1ccccc1Nc1nc(N)nc(CSC(=S)N2CCCCC2C)n1 (stereo not given) returned VDR inhibitor -3.8%.
Cc1ccc(N2CC(NC(=O)Cc3cccs3)CC2=O)cc1 (stereo not given) was read as VDR inhibitor 12.1%.
CC1CCCN(C(=O)CN2C(=O)CSc3ccc(S(=O)(=O)N4CCOCC4)cc32)C1 (stereo not given) was read as VDR inhibitor -1.1%.
For CCCS(=O)(=O)c1nc(S(=O)(=O)c2ccc(C)cc2)c(NCc2ccccn2)s1 the results were VDR inhibitor 1.5%.
For O=c1cc(-c2ccccc2)nc(Sc2ccc([N+](=O)[O-])cc2[N+](=O)[O-])[nH]1 the results were VDR inhibitor -22.4%.
`Cc1nc(SCc2ccccc2F)c2oc3ccccc3c2n1` gave VDR inhibitor -5.7%.
Screening CN(Cc1c(F)cccc1Cl)c1nnnn1-c1ccccc1 returned VDR inhibitor 18.2%.

Structures listed so far that have a CF3 group (three):
Screening Fc1ccc(Nc2ncncc2-c2ccccc2C(F)(F)F)cc1 returned VDR inhibitor inconclusive.
For Nc1ccc2c(C(F)(F)F)cc(C(F)(F)F)nc2n1 the results were VDR inhibitor 2.1%.
`O=C(NC(NCCCN1CCOCC1)(C(F)(F)F)C(F)(F)F)C1CCCCC1` gave VDR inhibitor 21.7%.

From PubChem BioAssay
